StopGo reporter = lowers the luciferase signal of an FMDV 2A StopGo reporter. AID 1159524. Potency, µM (highest dose often 57.9 µM), without a hit: at the top dose signal change, negative = less light. actives 1.2% (n = 410,000). human cells with a luciferase reporter of 2A StopGo recoding; control for the full effect not named in the record; active = well fitted falling curve with a large enough effect; inconclusive = small, poorly fitted or top-dose-only effect; inactive = no such curve, though single readings can be large or run the other way; tested in HEK293T cells; also: % is scaled to controls: 0 for no effect and ±100 for the full control effect; nearly all actives have a fitted effect of over 45% in size; luciferase light after 4 h
NS1 inh = influenza NS1 inhibition; AID 2326; S. cerevisiae slowed by influenza A NS1, growth recovery by OD600; Potency, µM (highest dose often 46.1 µM), for inactives: at the top dose activity, positive = more growth; actives 0.4% (n = 270,000); also: actives are rising curves; nearly all actives have a fitted effect of over 50% in size
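Growth recovery, yeast-based: influenza A NS1 expressed in S. cerevisiae causes slow growth, and suppressors are detected by OD600. The parent strain without NS1 is used as positive control.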
RE007 growth inh = less growth of the S. pombe RE007 Vpr strain | AID 651644 | actives 0.21% (n = 360,000) | Potency, µM (titrated, usually from 92.2 µM), inactives show top-dose activity change, negative = less growth | S. pombe RE007 Vpr strain, BacTiter-Glo ATP luminescence, 24 h; control for the full effect not named in the record; active = well fitted falling curve with a large enough effect; inconclusive = small, poorly fitted or top-dose-only effect; inactive = no such curve, though single readings can be large or run the other way;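 also: % is scaled to controls: 0 for no effect and ±100 for the full control effect; nearly all actives have a fitted effect of over 50% in size; the assay follows cell death caused by Vpr and the record does not say whether a fall means rescue or toxicity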
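Fission yeast strain RE007, carrying one chromosomally integrated HIV-1 vpr copy, was seeded at OD 0.01 in PMG+AL medium with 23 nL pinned compound. After 24 h at 30 °C and 99% humidity, viability was read by BacTiter-Glo luminescence.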
Cruzain inh noDet = inhibitors of Trypanosoma cruzi cruzain without detergent; purified cruzain, Z-FR-AMC fluorescence, no detergent; Potency, µM, without a hit: max response, negative = inhibition, most hits filed as inhibitors; AID 1476; P25779; actives 2.3% (n = 200,000); active = well fitted curve in the direction sought with a large enough effect; inconclusive = small, poorly fitted or top-dose-only effect, or another doubt; inactive = no such curve, though single readings can be large; an effect the other way counts as inactive or inconclusive;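 also: plate controls were enzyme without inhibitor for no effect and buffer without enzyme for full effect; nearly all actives have a fitted effect of over 40% in size; top concentration of the series not given in the record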
Target sequence (P25779 123-467 limits assumed): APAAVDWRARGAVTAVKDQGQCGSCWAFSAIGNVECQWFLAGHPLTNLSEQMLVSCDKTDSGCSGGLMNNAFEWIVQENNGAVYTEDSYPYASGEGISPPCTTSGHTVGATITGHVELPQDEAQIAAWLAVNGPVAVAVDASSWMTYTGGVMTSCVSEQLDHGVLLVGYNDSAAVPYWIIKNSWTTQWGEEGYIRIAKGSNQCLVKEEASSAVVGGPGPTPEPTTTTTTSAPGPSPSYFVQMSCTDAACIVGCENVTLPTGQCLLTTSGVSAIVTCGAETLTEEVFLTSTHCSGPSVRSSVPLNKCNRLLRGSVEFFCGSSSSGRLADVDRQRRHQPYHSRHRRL
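Detergent-free condition (0.00005% Triton X-100) in acetate buffer pH 5.5 with DTT. 1.5 nM enzyme and compound were pre-mixed 15 min, then 2 uM Z-FR-AMC substrate added; reaction progress from fluorescence change between first and third reads (60 s).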
SARS PLpro yeast = blocks SARS-CoV papain-like protease in a yeast assay | S. cerevisiae expressing SARS-CoV PLpro, growth rescue; control for the full effect not named in the record | Potency, µM (doses to about 32.9 µM), for inactives: top-dose activity, positive = growth rescue | actives 0.19% (n = 330,000) | AID 485353; also: 0% is about no effect; nearly all actives have a fitted effect of over 55% in size; growth read by luminescence after 48 h
Marburg entry inh = inhibitors of Marburg virus binding or cell entry | Marburg virus pseudotyped entry inhibition, cell reporter; control for the full effect not named in the record; about a third of the inactives were read at about 46 µM | Potency, µM (series often up to 37.8 µM), inactives show at the top dose activity change, negative = inhibition, actives largely listed as inhibitors | actives 1.8% (n = 300,000); active = well fitted inhibition curve with a large enough effect; inconclusive = small, poorly fitted or top-dose-only effect, or effect the other way; inactive = flat fitted curve, though single readings scatter; tested in HEK293 cells; about a fifth of its hits are not listed in these tables; also: % is scaled to controls: 0 for no effect and ±100 for the full control effect; luciferase read-out
Cruzain Triton = cruzain (T. cruzi) inhibition with detergent | actives 0.43% (n = 200,000) | AID 1478 | Potency, µM, without a hit: max response, negative = inhibition, most hits filed as inhibitors | purified cruzain, Z-FR-AMC fluorescence, 0.01% Triton; active = well fitted curve in the direction sought with a large enough effect; inconclusive = small, poorly fitted or top-dose-only effect, or another doubt; inactive = no such curve, though single readings can be large; an effect the other way counts as inactive or inconclusive;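 also: plate controls were neutral wells for no effect and buffer without enzyme for full effect; nearly all actives have a fitted effect of over 40% in size; top concentration of the series not given in the record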
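Cysteine protease activity tested under reducing, mildly acidic conditions (100 mM sodium acetate pH 5.5, 5 mM DTT) plus 0.01% Triton X-100. Cruzain 1.5 nM; substrate Z-FR-AMC 2 uM; 15 min compound preincubation at room temperature.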
Lassa entry inh = Lassa virus entry inhibition | Lassa virus pseudotype entry inhibition, cell reporter; control for the full effect not named in the record | Potency, µM (series often up to 37.9 µM), for the others: at the highest dose activity change, negative = inhibition, actives largely listed as inhibitors | actives 1.2% (n = 300,000); active means well fitted inhibition curve with a large enough effect; inconclusive means small, poorly fitted or top-dose-only effect, or effect the other way; inactive means flat fitted curve, though single readings scatter; tested in HEK293 cells; also: % is scaled to controls: 0 for no effect and ±100 for the full control effect; nearly all actives have a fitted effect of over 50% in size; luciferase read-out
An asterisk follows results filed as active; ? = inconclusive; . = not tested or not shown; & = joins results of further samples; [ ] = dose if it differs, or a comment. Unless noted, calls follow the shape of the dose curve; as a rule, active means well fitted rising curve with a large enough effect; inconclusive means small, poorly fitted or top-dose-only effect; inactive means no such curve, though single readings can be large or run the other way. Potency is read from the fitted curve at half-maximal effect.

Each structure is followed by: StopGo reporter	NS1 inh	RE007 growth inh	Cruzain inh noDet	SARS PLpro yeast	Marburg entry inh	Cruzain Triton	Lassa entry inh
Cc1ccc(C(=O)NCC(=O)OCCCn2c(=O)[nH]c3ccccc32)cc1
  -14%	.	11%	.	5%	-6%[46.1 µM]	.	6%
O=C(Cn1ncn2cccc2c1=O)NCc1cccc(Br)c1
  36%[activator]	.	.	-3%	.	3%[46.1 µM]	-6.5%	-4%[46.1 µM]
CCCOc1ccc(OC(=O)c2ccc(Br)o2)cc1
  17%	-43%	-2%	0%	-11%	7%	-4.2%	7%
CSCCC(=O)NC1CCCN(CCc2ccccc2)C1 (configuration not stated)
  -4%	12%	7%	.	1%	0%	.	3%
CN(CC(=O)Nc1ccccc1Cl)C(=O)COC(=O)c1cnccn1
  1%	6%	5%	.	-5%	.	.	.
O=C(COC(=O)Cc1ccc(F)cc1)NC1CCCCCC1
  -20%	.	9%	.	-8%	-18%[46.1 µM]	.	15%
Cc1ccccc1-c1nc(CN2CCC(C(=O)NC3CCN(Cc4ccccc4)CC3)CC2)c(C)o1
  ?	24%	2%	.	.	0%	.	.
CN1CCc2c(sc3nc(SCC(=O)NCc4ccco4)n(-c4ccccc4)c(=O)c23)C1
  43%[activator]	15%	-13%	.	2%	.	.	.
CC(C)Oc1ccccc1OCCCCn1cnc2ccccc2c1=O
  5%	-2%	5%	.	0%	9%	.	4%
CCOC(=O)N1CCN(S(=O)(=O)N2CCCC(C(=O)NCc3ccccc3Cl)C2)CC1 (configuration not stated)
  -14%	-14%	-6%	.	5%	.	.	.
Cc1ccc(C2SCCN2C(=O)c2ccc([N+](=O)[O-])cc2)cc1 (configuration not stated)
  ?	-7%	-20%	-6%	-9%	-3%	-3.7%	-12%
CCOC(=O)C1=NNC2(c3ccc(Cl)cc3)C(=O)N(c3ccc(C)cc3)C(=O)C12 (configuration not stated)
  0%	-5%	1%	3%	-12%	-14%	-4.8%	?
Cc1ccc(S(=O)(=O)c2c(C)cc(C)[nH]c2=O)c(C)c1
  29%	1%	2%	.	1%	.	.	.
CC(=O)c1cccc(NC(=S)NCCC2=CCCCC2)c1
  0%	-11%	-13%	-13%	15%	?	-13%	?
Cc1cccc(S(=O)(=O)C(C#N)c2nc3ccccc3nc2N2CCCC2)c1 (configuration not stated)
  7%	-117%	-23%	-7%	-4%	3%	-5.8%	-1%
COc1ccccc1N1CCN(C2CCCN(S(=O)(=O)c3ccccc3)C2)CC1 (configuration not stated)
  ?	4%	4%	.	2%	?	.	1%
COCCn1c(=NC(=O)c2ccc3c(c2)OCCO3)sc2cc(S(N)(=O)=O)ccc21
  ?	.	2%	.	-1%	?	.	4%
O=C(NC1CCCCCC1)C1c2ccccc2C(=O)N1Cc1cccnc1 (configuration not stated)
  6%	-12%	-8%	0%	-2%	-16%	0.9%	-18%[14.3 µM]
COc1ccc(C(=O)Nc2ccccc2C(=O)NC(C(=O)NCc2ccco2)C(C)C)cc1 (configuration not stated)
  -6%	6%	5%	17%	0%	27%&27%	-2.5%	-9%
O=C(c1ccc2c(c1)N(Cc1c(F)cccc1Cl)C(=O)c1ccccc1S2)N1CCOCC1
  11%	.	.	20%	.	-14%[46.1 µM]	-3.4%	-1%[46.1 µM]
COc1ccc(CNC(=O)c2cccnc2Sc2ccc(C)c(C)c2)cc1
  -13%	6%	-12%	-4%	13%	4%	-4.5%	?
CC(NC(=O)/C=C/c1ccc(Br)cc1)c1ccc(Cl)cc1 (configuration not stated)
  -3%	3%	-10%	5%	11%	?	-0.4%	?
O=C(Nc1ccc(F)cc1F)Nc1ccc(F)cc1F
  5%	-2%	-15%	.	0%	-23%[46.1 µM]	.	?
Nc1ncccc1OCc1cccc(C(F)(F)F)c1
  ?	.	14%	.	-4%	3%[46.1 µM]	.	?
O=[N+]([O-])c1nn(-c2ccc3c(c2)OCCO3)n(O)c1=NC1CCCCCC1
  -11%	-59%	2%	0%	-18%	?	-2.1%	10%
Cc1ccc(C(=O)NCC(=O)OCc2cc(=O)n3nc(C4CC4)sc3n2)cc1
  -22%	.	.	?	.	.	-1.2%	1%[46.1 µM]
COc1ccc(-c2nc3ccccc3n2Cc2ccc(C(C)C)cc2)cc1
  -30%	.	.	-2%	.	?	-6.6%	0%[46.1 µM]
CCC1(c2ccccc2)NC(=O)N(CC(=O)NNC(=O)CCN2CCN(c3ccccc3)CC2)C1=O (configuration not stated)
  -27%	.	-12%	.	-8%	28%	.	8%
CCN(CC)CCNC(=O)C(C(=O)c1ccccc1)n1ccccc1=O (configuration not stated)
  4%	-1%	5%	3%	-1%	?	3.1%	-16%
NC(=O)c1ccc(NC(=O)CCc2nc3ccccc3s2)cc1
  0%	6%	-4%	.	3%	.	.	.
COc1ccc(S(=O)(=O)n2cnc3ccccc32)cc1OC
  12%	-4%	3%	.	1%	.	.	.
O=C(N/N=C/c1ccco1)c1csc2c1CCCC2
  44%[activator]	-7%	2%	.	1%	0%[46.1 µM]	.	-2%
C=CCc1cccc2cc(C(=O)N3CCN(c4ccccn4)CC3)c(=O)oc12
  -14%	.	-2%	.	-4%	?	.	12%
Cc1nccn1CCc1n[nH]c(=S)n1Cc1ccccc1
  0%	1%	18%	1%	-1%	?	-0.1%	13%
COc1cccc(-c2c(-c3cc(OC)cc(OC)c3)n(C)c3ccc(-c4cnc(OC)nc4)cc23)c1
  ?	.	7%	.	-2%	-1%	.	.
Cc1cccc(NC(=O)NNC(=O)c2ccc(C)c([N+](=O)[O-])c2)c1
  -9%	-2%	-7%	.	2%	.	.	.
O=C(CN1C(=O)NC2(CCCCC2)C1=O)N1CCN(S(=O)(=O)c2cccc([N+](=O)[O-])c2)CC1
  -24%	.	18%	.	-4%	17%	.	?
COc1ccc(NS(=O)(=O)c2cc(NC(=O)CCNC(C)=O)ccc2N2CCOCC2)cc1
  57%[activator]	.	-11%	.	5%	-22%[46.1 µM]	.	-1%
O=S(=O)(Nc1cc(F)ccc1F)c1cccc2nonc12
  22%	-40%	7%	.	-6%	?	.	20%[46.1 µM]
Cc1ccc(C)c(NC(=O)C2C3CCCC2C3c2ccccc2)c1 (configuration not stated)
  0%	5%	0%	-5%	11%	?	0.8%	-8%
Cc1occc1-c1nnc(SCC(=O)NCC2CCCO2)n1C (configuration not stated)
  9%	-8%	4%	2%	-6%	13%[46.1 µM]	3.5%	-1%
COC(=O)C(C)Nc1cccc(Br)c1 (configuration not stated)
  46%[activator]	-3%	-4%	.	-1%	.	.	.
CC(C)NC(=O)CSc1nnc(CNC(=O)OC(C)(C)C)n1C
  -6%	-12%	-24%	.	-1%	?	.	11%[46.1 µM]
O=C(Nc1cc(Br)ccc1O)c1cc(-c2ccc3c(c2)OCO3)on1
  35%[activator]	-14%	2%	.	-3%	6%[46.1 µM]	.	-1%
CCc1ccc(NC(=O)Cn2c(=O)n(-c3ccc(Cl)c(Cl)c3)c(=O)c3c(C)c(C)sc32)cc1
  -10%	.	.	-7%	.	12%[46.1 µM]	-2.2%	-22%[46.1 µM]
CC(=O)N1CCOc2ccc(S(=O)(=O)N3CCC(C(=O)Nc4ccccc4F)CC3)cc21
  26%	-15%	19%	.	-1%	-4%[46.1 µM]	.	-8%[46.1 µM]
CC(=O)N1CCN(c2nc(-c3cccs3)nc3ccccc23)CC1
  -13%	.	-2%	.	-5%	?	.	?
Cc1c(C(=O)N2CCCc3ccccc32)sc2nc(-c3ccccc3)cn12
  0%	3%	4%	.	4%	.	.	.
Cc1cccc(NCc2ccccc2O)n1
  18%	-5%	-3%	2%	3%	-8%[46.1 µM]	0.5%	14%
CCOc1ccc(CCNC(=O)COC(=O)c2ccc(F)c(S(=O)(=O)N3CCOCC3)c2)cc1OCC
  -8%	.	16%	.	8%	1%	.	8%

Following part
Each structure is followed by: StopGo reporter	NS1 inh	RE007 growth inh	Cruzain inh noDet	SARS PLpro yeast	Marburg entry inh	Cruzain Triton	Lassa entry inh
Cc1c(CN(C)C(=O)c2cc(-c3ccccc3)nc3ccc(Br)cc23)cnn1C
  -17%	.	.	?	.	?	-6.4%	?
O=CN1CCN(S(=O)(=O)c2ccc(Cl)c(C(=O)O)c2)CC1
  4%	.	2%	.	6%	-13%[46.1 µM]	.	-7%[46.1 µM]
Cc1nc(C(C)NC(=O)CCc2nnc(CCCc3ccccc3)o2)c(C)s1 (configuration not stated)
  47%[activator]	-2%	1%	.	0%	-1%[46.1 µM]	.	16%
O=C(COC(=O)c1ccc(O)cc1O)Nc1nnc(-c2ccccc2)o1
  0%	.	-12%	.	-4%	-2%	.	10%[46.1 µM]
O=S(=O)(NCc1ccc(F)cc1)c1ccc2[nH]c3c(c2c1)CCCCC3
  39%[activator]	.	.	?	.	.	-15%	8%[46.1 µM]
CC12CCC(C(=O)N(CSC(=S)N/N=C\c3ccccc3O)C1=O)C2(C)C (configuration not stated)
  1%	28%	19%	?	8%	-30%[46.1 µM]	-19%	?
Cc1ccc(F)cc1NCC(=O)Nc1ccc(Br)cc1
  66%[activator]	-27%	-20%	-6%	-39%	?	-7.2%	22%
COC(=O)c1sc2cc([N+](=O)[O-])cc(SCC(C)C)c2c1N
  -28%	2%	-7%	-20%	20%	17%	-10%	-19%
O=C(NCc1n[nH]c(=S)n1-c1ccc(Br)cc1)c1cccs1
  -1%	.	-12%	.	-1%	15%[46.1 µM]	.	20%
O=C(Nc1ccc(O)cc1)C1CCCN1S(=O)(=O)c1ccc(F)cc1 (configuration not stated)
  0%	-14%	0%	1%	-2%	.	-2.3%	.
CN(Cc1ccc2nsnc2c1)Cc1nc(Cc2cccc(F)c2)no1
  -8%	-3%	-16%	.	0%	.	.	.
Oc1cccc(/C=N/NC(=S)NCCN2CCOCC2)c1O
  -4%	-2%	11%	.	7%	.	.	.
